From PubChem BioAssay
Vaccinia stage = blocks a specific stage of Vaccinia orthopoxvirus infection | 89,000 tested, 0.01% active | AID 1053133 | activity change (mCherry), % (concentration not given with the values) | Vaccinia-infected cells, mCherry/Venus stage reporter fluorescence; stronger effect = lower value; some inactives read as strong as hits;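 active means mCherry past -33% and 40 or more points under the early reporter, replicates agreeing; inconclusive means past -33% without that gap or agreement; tested in A549 cells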;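 further: scaled between vehicle wells and reference inhibitor wells; 23 nL library stock went into each well; one replicate is shown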
Vaccinia stage Venus = recorded beside Vaccinia stage, whose call it bears; activity change (Venus), %; measured here: Venus reporter, other viral stage;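 negative = less Venus signal; first of two replicates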
An asterisk follows results filed as active; ? = inconclusive; . = no result given. Not all compounds are listed; count on the stated rates, not on these rows.

SMILES	Vaccinia stage	Vaccinia stage Venus
CC(=O)N1[C@@H]2c3cccc(=O)n3C[C@H]1[C@H](CO)[C@H]2C(=O)N1CCc2ccccc2C1	0	2
COC(=O)C[C@H]1CC[C@H]2[C@@H](COc3ccc(NC(=O)Nc4ccc(C)cc4)cc3C(=O)N2C)O1	-23	-12
Cc1ccc(-c2cnc3c(c2)C(=O)N([C@@H](C)CO)C[C@H](C)[C@H](CN(C)C(=O)Cc2cccnc2)O3)cc1	20	9
Cc1noc(C)c1S(=O)(=O)Nc1ccc2c(c1)C(=O)N([C@H](C)CO)C[C@@H](C)[C@H](CN(C)S(=O)(=O)c1ccc(Cl)cc1)OCCCC[C@@H](C)O2	?	.
COc1ccccc1S(=O)(=O)N[C@@H]1CC[C@H](CC(=O)N2CCCCC2)O[C@H]1CO	9	-4
C[C@H]1CN([C@@H](C)CO)C(=O)c2cc(NC(=O)Nc3ccccc3)ccc2O[C@H]1CN(C)S(=O)(=O)c1ccccc1	-14	-9
C[C@@H]1CN([C@@H](C)CO)C(=O)c2cccc(NS(=O)(=O)c3ccc(Cl)cc3)c2O[C@@H]1CN(C)S(C)(=O)=O	13	3
COCC(=O)N(C)C[C@H]1Oc2cc(-c3ccc(C)cc3)ccc2S(=O)(=O)N([C@@H](C)CO)C[C@H]1C	-9	-7
Cc1noc(C)c1NC(=O)N(C)C[C@H]1Oc2ccc(NS(=O)(=O)c3cn(C)cn3)cc2C(=O)N([C@@H](C)CO)C[C@@H]1C	7	-9
C[C@@H]1CN([C@@H](C)CO)C(=O)Cc2cc(NS(=O)(=O)c3ccccc3)ccc2O[C@@H]1CN(C)Cc1ccc(C(=O)Nc2ccccc2N)cc1	16	4
C[C@@H]1CN([C@@H](C)CO)C(=O)Cc2cc(NC(=O)Cc3cn(C)c4ccccc34)ccc2O[C@H]1CN(C)C(=O)Nc1cccc2ccccc12	12	17
O=S(=O)(c1ccc(F)cc1)N1CCCCN2[C@H](CO)[C@H](c3ccc(-c4cncnc4)cc3)[C@H]2C1	-13	-12

Complete entries, quoted from the list.
Shown for C[C@@H]1CN([C@@H](C)CO)C(=O)Cc2cc(NS(=O)(=O)c3ccccc3)ccc2O[C@@H]1CN(C)Cc1ccc(C(=O)Nc2ccccc2N)cc1 → Vaccinia stage = 16; Vaccinia stage Venus = 4
Shown for Cc1noc(C)c1S(=O)(=O)Nc1ccc2c(c1)C(=O)N([C@H](C)CO)C[C@@H](C)[C@H](CN(C)S(=O)(=O)c1ccc(Cl)cc1)OCCCC[C@@H](C)O2 → Vaccinia stage = ?; Vaccinia stage Venus = .

Following part.
SMILES	Vaccinia stage	Vaccinia stage Venus
COCC(=O)N1C[C@@H]2[C@H](c3ccccc31)[C@@H](CO)N2Cc1ccccc1F	17	3
CCC(=O)Nc1ccc2c(c1)C(=O)N(C)C[C@@H](OC)[C@@H](C)CN(CCc1ccccc1)[C@@H](C)CO2	6	9
C[C@H]1CCCCO[C@@H](CN(C)Cc2ccncc2)[C@@H](C)CN([C@@H](C)CO)C(=O)c2cc(NC(=O)Nc3ccccc3)ccc2O1	-31	-23
COc1ccc(S(=O)(=O)N(C)C[C@@H]2Oc3ccc(NC(=O)C4CCCCC4)cc3CC(=O)N([C@H](C)CO)C[C@@H]2C)cc1	-10	-3
COc1ccc(S(=O)(=O)Nc2cccc3c2O[C@H](CN(C)S(=O)(=O)c2ccc(Cl)cc2)[C@@H](C)CN([C@@H](C)CO)C3=O)cc1	15	8
CCCNC(=O)N1[C@@H]2Cn3c(cccc3=O)[C@H]1[C@@H](C(=O)NCC(F)(F)F)[C@@H]2CO	19	14
CCS(=O)(=O)Nc1ccc2c(c1)C(=O)N(C)[C@H]1CC[C@H](CC(=O)Nc3ccc(Cl)cc3)O[C@@H]1CO2	21	6
COc1ccccc1-c1ccc2c(c1)O[C@H](CN(C)C)[C@H](C)CN([C@@H](C)CO)S2(=O)=O	-3	-11
N#C[C@H]1[C@@H](c2ccc(-c3ccc(F)cc3)cc2)[C@H](CO)N1c1nc(-c2ccccc2)cs1	0	-3
COc1cccc(NC(=O)Nc2ccc3c(c2)C(=O)N(C)C[C@H](OC)[C@H](C)CN[C@@H](C)CO3)c1	-1	-8
CC(=O)N1[C@@H](CO)[C@H](c2ccccc2)[C@@H]1CN(C(=O)c1ccc(F)cc1)C(C)C	1	4
CO[C@H]1CN(C)C(=O)c2cc(NC(=O)c3cccc(F)c3)ccc2OC[C@@H](C)NC[C@@H]1C	-9	-4
C[C@@H]1CN([C@H](C)CO)S(=O)(=O)c2ccc(Br)cc2O[C@H]1CN(C)Cc1ccccn1	-7	-14
COc1ccc(S(=O)(=O)N(C)C[C@@H]2Oc3c(NC(=O)C4CCCCC4)cccc3C(=O)N([C@H](C)CO)C[C@@H]2C)cc1	8	1
COCC(=O)Nc1ccc2c(c1)[C@H]1C[C@@H](CC(=O)NC3CCCC3)O[C@@H](CO)[C@H]1O2	8	10
C[C@H](CO)N1C[C@H](C)[C@@H](CN(C)C(=O)Nc2ccc(F)cc2)Oc2ccc(NC(=O)CCN3CCOCC3)cc2CC1=O	1	-3
O=C(Cc1ccccc1)N1C[C@@H]2[C@H](c3ccccc31)[C@@H](CO)N2C(=O)c1ccc(F)cc1	2	-3
CC(C)N(C[C@H]1[C@@H](c2ccccc2)[C@H](CO)N1S(C)(=O)=O)C(=O)CN(C)C	19	20
CO[C@@H]1CN(C)C(=O)c2cc(NC(=O)C3CCOCC3)ccc2OC[C@H](C)N(C(C)=O)C[C@H]1C	-1	6
C[C@@H]1CN([C@@H](C)CO)S(=O)(=O)c2ccc(C3=CCCC3)cc2O[C@H]1CN(C)Cc1ccccc1F	-23	-19
COc1ccccc1S(=O)(=O)N[C@H]1C=C[C@H](CC(=O)NCc2cc(F)cc(F)c2)O[C@H]1CO	-1	3
COc1ccc(NC(=O)N(C)C[C@H]2Oc3cc(C#CCC(C)C)ccc3S(=O)(=O)N([C@@H](C)CO)C[C@@H]2C)cc1	?	.
Cc1ccc(S(=O)(=O)Nc2ccc3c(c2)C(=O)N([C@H](C)CO)C[C@H](C)[C@H](CN(C)S(=O)(=O)c2cccs2)O3)cc1	-13	-8
C[C@@H]1CN([C@@H](C)CO)C(=O)c2cc(NS(C)(=O)=O)ccc2O[C@H]1CN(C)Cc1ccccc1	8	9
COc1ccc(C#Cc2ccc([C@H]3[C@H]4CN(C(=O)Cc5cccnc5)CCCCN4[C@H]3CO)cc2)cc1	?	.
CCC(=O)N1CC2(C1)[C@@H](c1ccccc1)[C@@H](CO)N2C(=O)c1ccncc1	18	19
CN1CCN(C(=O)C[C@@H]2CC[C@H](NC(=O)c3ccc4c(c3)OCO4)[C@H](CO)O2)CC1	-5	-3
CC(=O)N(C)C[C@H]1Oc2cc(C#Cc3ccncc3)ccc2S(=O)(=O)N([C@@H](C)CO)C[C@H]1C	14	12
C[C@@H]1CCCCO[C@@H](CN(C)S(C)(=O)=O)[C@H](C)CN([C@@H](C)CO)C(=O)c2cc(NC(=O)Nc3ccc4c(c3)OCO4)ccc2O1	8	6
CCC(=O)N[C@H]1CC[C@@H](CCn2cc(C3CC3)nn2)O[C@@H]1CO	5	7
CCCNC(=O)[C@H]1[C@H](CO)[C@H]2Cn3c(ccc(-c4ccccc4)c3=O)[C@H]2N1C(=O)C1CC1	1	2
C[C@@H]1CN([C@H](C)CO)C(=O)c2cc(N(C)C)ccc2O[C@H]1CN(C)Cc1ccc(C(=O)Nc2ccccc2N)cc1	-14	-17
CN(C)C(=O)c1ccc(-c2ccc([C@H]3[C@H](CO)N4CCCCN(S(C)(=O)=O)C[C@@H]34)cc2)cc1	36	12
CS(=O)(=O)N1CC2(C1)[C@H](c1ccccc1)[C@@H](CO)N2CC1CCCC1	1	4
COc1ccc(S(=O)(=O)Nc2ccc3c(c2)CC(=O)N([C@H](C)CO)C[C@@H](C)[C@H](CN(C)Cc2ccc(-c4ccccc4)cc2)O3)cc1	-15	-15
CCCNC(=O)N1CC2(C1)CN(C(=O)c1ccncc1)[C@H](CO)c1[nH]c3cc(OC)ccc3c12	22	8
CC(=O)N(C)C[C@@H]1Oc2ncc(C#CC(C)(C)O)cc2C(=O)N([C@H](C)CO)C[C@@H]1C	9	14
CNC[C@@H]1Oc2ccc(NS(=O)(=O)c3ccc(F)cc3)cc2CC(=O)N([C@@H](C)CO)C[C@@H]1C	0	4
C[C@@H]1CN([C@H](C)CO)C(=O)c2cc(C#CCN(C)C)cnc2O[C@@H]1CN(C)Cc1ccccn1	0	0
C[C@@H]1CN([C@H](C)CO)C(=O)Cc2cc(NS(=O)(=O)c3ccc(F)cc3)ccc2O[C@H]1CN(C)C(=O)NC1CCCCC1	11	14
CO[C@@H]1CN(C)C(=O)c2cc(NS(C)(=O)=O)ccc2OC[C@@H](C)N(CC2CCCCC2)C[C@H]1C	-1	-2
CC(C)NC(=O)N(C)C[C@@H]1OCCCC[C@H](C)Oc2ccc(NC(=O)Nc3ccc(F)cc3)cc2C(=O)N([C@H](C)CO)C[C@@H]1C	9	10
N#C[C@H]1[C@@H](c2ccc(C#Cc3ccccc3F)cc2)[C@@H](CO)N1C(=O)C1CCCC1	-27	-20
Cc1noc(C)c1NC(=O)N(C)C[C@@H]1OCCCC[C@H](C)Oc2ccc(NS(=O)(=O)c3ccc(F)cc3)cc2C(=O)N([C@@H](C)CO)C[C@H]1C	19	13
COc1ccccc1S(=O)(=O)N[C@@H]1CC[C@H](CCNC(=O)C2CCCC2)O[C@@H]1CO	-3	-7
C[C@@H]1CN([C@H](C)CO)C(=O)c2cc(NC(=O)Nc3ccc(C(F)(F)F)cc3)ccc2O[C@H]1CN(C)C(=O)Nc1ccc(F)cc1	3	7
C[C@H](CO)N1C[C@H](C)[C@@H](CN(C)C(=O)c2ccc3c(c2)OCO3)Oc2ncc(C3=CCCC3)cc2C1=O	-26	-19
C[C@@H](NC(=O)C[C@@H]1C=C[C@H](NC(=O)C2CCC2)[C@H](CO)O1)c1ccccc1	2	2
COC(=O)C[C@@H]1CC[C@H]2[C@H](COc3ccc(NC(=O)c4cc(C)on4)cc3C(=O)N2C)O1	1	-6
N#C[C@@H]1[C@H](c2ccccc2-c2ccccc2F)[C@@H](CO)N1C(=O)C1CCC1	10	1
C[C@H]1CCCCO[C@H](CN(C)Cc2ccc(C(F)(F)F)cc2)[C@@H](C)CN([C@@H](C)CO)C(=O)c2cc(NC(=O)Nc3ccc4c(c3)OCO4)ccc2O1	-7	-7
CC(C)(C)[S@](=O)N1Cc2cc(C(=O)NC3CCC3)nc(-c3cccc(-c4ccccc4F)c3)c2[C@@H]1CCO	?	.
O=C([C@@H]1[C@@H](CO)[C@@H]2Cn3c(cccc3=O)[C@@H]2N1Cc1ccccc1Cl)N1CCOCC1	0	-5
O=C(NCC[C@H]1CC[C@@H](NS(=O)(=O)c2ccc(Cl)cc2)[C@H](CO)O1)Nc1ccc(F)cc1	8	-7
CC(C)[C@@H]1COCc2cn(nn2)CC[C@H](Cc2ccccc2)C(=O)N1	19	6
O=C(Cc1ccccn1)N[C@@H]1CC[C@@H](CCn2cc(-c3ccccc3)nn2)O[C@H]1CO	11	8
C[C@H]1CN([C@@H](C)CO)S(=O)(=O)c2ccc(C#CC3CC3)cc2O[C@@H]1CN(C)C(=O)Cc1ccncc1	-18	-6
COc1ccccc1NC(=O)N[C@@H]1CC[C@H](CCn2cc(-c3ccccc3)nn2)O[C@H]1CO	12	10
Cc1ccc(S(=O)(=O)Nc2ccc3c(c2)CC(=O)N([C@@H](C)CO)C[C@H](C)[C@H](CN(C)CC2CCCCC2)O3)cc1	?	.
CC(C)NC(=O)N(C)C[C@@H]1Oc2c(NC(=O)c3cnccn3)cccc2C(=O)N([C@@H](C)CO)C[C@H]1C	5	-7

5 of the compounds above, with values under each structure:
Each structure is followed by: Vaccinia stage	Vaccinia stage Venus
- O=C(Cc1ccccn1)N[C@@H]1CC[C@@H](CCn2cc(-c3ccccc3)nn2)O[C@H]1CO
  11	8
- C[C@H]1CN([C@@H](C)CO)S(=O)(=O)c2ccc(C#CC3CC3)cc2O[C@@H]1CN(C)C(=O)Cc1ccncc1
  -18	-6
- COc1ccccc1NC(=O)N[C@@H]1CC[C@H](CCn2cc(-c3ccccc3)nn2)O[C@H]1CO
  12	10
- Cc1ccc(S(=O)(=O)Nc2ccc3c(c2)CC(=O)N([C@@H](C)CO)C[C@H](C)[C@H](CN(C)CC2CCCCC2)O3)cc1
  ?	.
- CC(C)NC(=O)N(C)C[C@@H]1Oc2c(NC(=O)c3cnccn3)cccc2C(=O)N([C@@H](C)CO)C[C@H]1C
  5	-7

Other structures.
SMILES	Vaccinia stage	Vaccinia stage Venus
CNC[C@H]1OCCCC[C@@H](C)Oc2ccc(NS(=O)(=O)c3cn(C)cn3)cc2C(=O)N([C@H](C)CO)C[C@@H]1C	17	12
C[C@@H]1CN([C@H](C)CO)C(=O)c2cccc(N(C)C)c2O[C@H]1CN(C)C	-6	-2
CCN(C[C@H]1N[C@H](CO)[C@@H]1c1ccc(-c2cccc(F)c2)cc1)C(=O)COC	-18	7
COc1ccc(NC(=O)Nc2ccc3c(c2)C(=O)N([C@@H](C)CO)C[C@@H](C)[C@@H](CN(C)C(=O)Nc2ccc(F)cc2)OCCCC[C@@H](C)O3)cc1	0	-6
CC(C)NC(=O)N(C)C[C@@H]1Oc2cc(-c3cncnc3)ccc2S(=O)(=O)N([C@@H](C)CO)C[C@H]1C	27	21
C[C@@H]1CN([C@@H](C)CO)C(=O)c2cc(-c3cccc(F)c3)cnc2O[C@H]1CN(C)S(C)(=O)=O	18	7
COc1ccc(NC(=O)N(C)C[C@@H]2OCc3ccccc3-c3c(n(C)c4ccccc34)C(=O)N([C@@H](C)CO)C[C@H]2C)c(OC)c1	-23	-17
O=C(C[C@H]1CC[C@H]2[C@@H](COC[C@H](O)CN2C(=O)c2ccccn2)O1)N1CCN(c2ccccc2)CC1	5	9
